Screening data deposited in PubChem BioAssay by Broad Institute.
Bfl-1 A1 inh = caspase 3/7 activation in MEF A1-2A-BIM cells, primary screen, A1 inhibitor project, cell-based, luminescence, HTS | Caspase-Glo 3/7 luminescence, 3 h; percent of clofoctol response, vehicle zero | AID 2462, 2010 | actives 0.066% (n = 330,000) | caspase activation, % (no concentration beside the values);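 active = over half of replicate activation scores above 10%, or exactly half above 10 with the replicate mean above 10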;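 note: wells of about 30 µL received 50 nL stock; many hits fall short of the cut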
MLL AF4-AF9 inh = inhibitors of AF4 peptide binding to AF9, primary screen, biochemical, AlphaScreen, biotin-AF4 peptide, FLAG-AF9, single point | Protein AF-9 (Homo sapiens), P42568 | actives 0.47% (n = 350,000) | inhibition, % at 10 µM;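 active = every replicate reaching a set inhibition limit, whatever the replicate mean, cut at about 25% in these data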;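 note: 0% = plate neutral control median and 100% = total signal loss; the record names both 10 and 1 µM as test concentration; the first replicate is given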
Target sequence (P42568 whole entry, looked up): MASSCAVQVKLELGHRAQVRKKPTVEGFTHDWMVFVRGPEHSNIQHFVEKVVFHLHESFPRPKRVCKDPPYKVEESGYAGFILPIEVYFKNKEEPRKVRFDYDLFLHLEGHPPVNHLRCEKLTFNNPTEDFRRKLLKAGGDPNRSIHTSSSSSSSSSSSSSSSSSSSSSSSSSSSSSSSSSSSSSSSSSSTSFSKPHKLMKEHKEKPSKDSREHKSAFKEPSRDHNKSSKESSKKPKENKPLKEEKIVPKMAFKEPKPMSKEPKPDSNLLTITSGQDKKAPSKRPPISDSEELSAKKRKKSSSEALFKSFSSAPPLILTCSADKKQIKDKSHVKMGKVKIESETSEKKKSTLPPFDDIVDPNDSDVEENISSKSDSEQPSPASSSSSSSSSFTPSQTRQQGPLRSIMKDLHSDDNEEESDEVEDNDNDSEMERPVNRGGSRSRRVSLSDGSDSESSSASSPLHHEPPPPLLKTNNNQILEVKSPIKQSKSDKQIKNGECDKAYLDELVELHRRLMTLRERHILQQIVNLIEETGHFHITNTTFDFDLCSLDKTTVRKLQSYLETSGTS
Beta apoptosis = inhibitors of cytokine-induced beta cell apoptosis, primary screen, luminescence; protection from apoptosis, % (no concentration beside the values); actives 0.8% (n = 300,000); INS-1E cytokine-induced death, ATP luminescence, 48 h; percent of positive-control rescue, neutral wells zero;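 active = all replicates at 75% or more, or half of them and the mean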;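 note: 0% = cytokine-treated negative control wells and 100% = positive control rescue; higher means more ATP so stronger rescue from cytokine killing; wells of about 40 µL received 100 nL stock; the first replicate is given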
rRNA inh HTS = reduced GFP signal of wild-type E. coli, primary screen, bacterial rRNA inhibitor project, GFP/RFP fluorescence, OD600, single point; actives 1.6% (n = 350,000); E. coli WT GFP vs humanized-ribosome RFP mutants, 24 h; stronger effect = lower value; DMSO median 0, no signal -100; GFP signal change (wild-type ribosome), % (no concentration beside the values); AID 720706, 2013;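 active = significant combined selectivity score with lowered wild-type GFP, culture density cut under 30%, mutant RFP and density less affected; inactive = any of these conditions unmet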; note: one replicate is shown; some compounds called inactive have numbers as strong as hits
rRNA inh HTS OD600 = second read-out of rRNA inh HTS, no call of its own (marks repeat the call); OD600 change, %; measured here: OD600 growth;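 optical density of the mix in the first replicate; 0 = DMSO median and -100 = no signal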
rRNA inh HTS RFP = recorded beside rRNA inh HTS, whose call it bears; RFP signal change, %; measured here: RFP humanized mutant strains;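 first replicate; 0 = DMSO median and -100 = no signal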
Starred values were filed as active, the others as inactive; . = not tested or not shown; & = joins results of further samples.

The line under a structure holds: Bfl-1 A1 inh	MLL AF4-AF9 inh	Beta apoptosis	rRNA inh HTS	rRNA inh HTS OD600	rRNA inh HTS RFP
- O=C(C[C@@H]1C/C=C\C[C@H](Cc2ccc(F)cc2)C(=O)OC[C@@H](Cc2c[nH]c3ccccc23)NC1=O)NCCO
  -0.1	.	-10	-5	2	-13
- CN(C)c1ccc(-c2ccc3oc(-c4ccsc4)cc(=O)c3c2)cn1
  -1.2	.	6	3	4	3.2
- Nc1cccc(O)c1
  0.6	.	-3	6	5	-1.4
- O=C(O)c1ccc(O)cc1O
  -0.3	.	-8	7	0	-0.2
- O=C1CCCCC1
  0.1	.	0	6	4	0.1
- C=C1C[C@@]23CCC4[C@@](C)(CCC[C@@]4(C)C(=O)OC)C2CC[C@]1(OC(C)=O)C3 (some centres not stated)
  1.0	.	-14	5	-10	-4.7
- CN1CCN(C(=O)c2cccc(-c3cc(O)c4ncccc4c3)c2)CC1
  0.6	.	32	8	6	5.1
- CC(CCN1CCN=C1N(C)C)c1ccccc1 (configuration not stated)
  0.2	.	-7	-2	14	-1.6
- COc1ccc(S(=O)(=O)N(C)C[C@@H]2Oc3c(NS(=O)(=O)c4cn(C)cn4)cccc3C(=O)N([C@@H](C)CO)C[C@@H]2C)cc1
  -0.2	.	4	0	-3	2.7
- COC(C[C@H](O)C[C@H](O)[C@H](C)OCc1ccccc1)OC
  -0.3	.	1	-19	-25	20
- COc1cccc2sc(N)nc12
  -0.1	.	-5	1	0	-0.8
- CCN(CC)C(=O)OCCc1cc2ccccc2c(=O)o1
  -1.2	.	4	11	9	-2.1
- CCOC(=O)[C@@H]1[C@H]2COc3cc(OC)ccc3[C@H]2N2C(=O)N(c3cccc(C)c3)C(=O)[C@]12C
  0.5	.	6	16	16	-1.2
- C[C@H]1COC(=O)[C@@H](Cc2ccc(F)cc2)CC/C=C/C[C@@H](CC(=O)N(CCO)Cc2ccccc2)C(=O)N1
  1.1	.	2	-1	-4	-11
- C[C@H](NC(=O)c1ncn(Cc2ccccc2)c1C(=O)N[C@@H](C)c1ccccc1)c1ccccc1
  -0.1	.	10	16	7	-6.1
- Cc1cccc(NC(=O)C2CCCN2C(=O)OCc2ccccc2)c1 (configuration not stated)
  -0.8	.	-4	-4	-3	2.2
- CCOC(=O)[C@@H]1[C@H]2COc3ccc(Br)cc3[C@@H]2N2C(=O)N(c3ccc(Br)cc3)C(=O)[C@@]12C
  1.9	.	-1	6	8	3.4
- O=Cc1ccc(Cl)c(Cl)c1
  -0.3	.	-4	1	-4	-0.3
- NC(=O)c1cc([N+](=O)[O-])ccc1NCc1ccccn1
  0.4	.	0	3	-3	-3.3
- O=C1C=CCCC1
  0.7	.	1	1	4	-0.6

Later entries
The line under a structure holds: Bfl-1 A1 inh	MLL AF4-AF9 inh	Beta apoptosis	rRNA inh HTS	rRNA inh HTS OD600	rRNA inh HTS RFP
- Cc1c(N)cccc1[N+](=O)[O-]
  0.4	.	5	0	-1	0.0
- CCN(CC)C(=O)c1[nH]cnc1C(=O)NCc1ccc(CNC(=O)OC(C)(C)C)cc1
  -1.0	.	2	5	2	-3.8
- CCSc1ccc([C@@H]2[C@H]3C(=O)N(C)C(=O)[C@H]3[C@]3(C(=O)OC)CCCCN23)cc1OC
  -1.1	.	4	3	-16	48
- CN(Cc1ccccc1)C(=O)c1nc[nH]c1C(=O)N1CCc2ccccc2C1
  0.7	.	-1	7	4	6.7
- CCCCCC/C(C=O)=C\c1ccccc1
  -0.4	.	-5	5	-1	0.1
- Cc1c(C(=O)O)cccc1[N+](=O)[O-]
  0.2	.	2	4	3	-2.2
- CCCCNc1c(-c2ccc(SC(C)CC)c(OC)c2)nc2ccc(Cl)cn12 (configuration not stated)
  -0.7	.	11	-8	-9	0.2
- C[C@H](CO)N1C[C@H](C)[C@@H](CN(C)Cc2ccccc2)Oc2ccc(NC(=O)CCCCCC(=O)Nc3ccccc3N)cc2C1=O
  0.5	.	4	-2&-1	7&-1	-2.4&-5.0
- C[C@H](OC(=O)n1ccnc1)[C@@H]1O[C@@]2(C)CCC[C@@H]1O2
  -1.1	.	7	10	8	-1.1
- O=C(O)CCC(=O)OCCCc1cc2ccccc2c(=O)o1
  0.0	.	-3	13	17	-0.7
- CC(C)(C)OC(=O)C[C@@H]1C/C=C\C[C@@H](CC(=O)N(CCO)Cc2ccccc2)C(=O)NC[C@H](c2ccccc2)OC1=O
  0.1	.	3	0	10	-0.2
- O=C(Cn1ccc(NC(=O)OCc2ccccc2)nc1=O)NCCc1ccccn1
  0.4	.	1	6	2	-3.3
- O=C(c1ncn(Cc2ccccc2)c1C(=O)N1CCc2ccccc2C1)N1CCc2ccccc2C1
  1.0	.	1	-8	-10	7.4
- COC(=O)[C@H](CC(C)C)N(Cc1ccccc1)S(=O)(=O)N(Cc1ccc(OC)cc1)[C@@H](CC(C)C)C(=O)OC
  1.8	.	116*	16	8	-6.6
- OC1CCCC1
  0.2	.	2	9	10	3.0
- Nc1ccn(CC(=O)N[C@H](CO)Cc2c[nH]c3ccccc23)c(=O)n1
  -0.1	.	-4	10	14	0.3
- C[C@H](NC(=O)c1nc[nH]c1C(=O)N[C@@H](C)c1ccccc1)c1ccccc1
  -1.7	.	2	-38	-63	-8.9
- O=C(OCc1c(-c2ccccc2)ncc2ccccc12)c1ccc(Cl)cc1Cl
  0.6	.	0	3	1	1.1
- C=CC(C)(C)O[C@@H]1O[C@H](CO)[C@@H](O)[C@H](O)[C@H]1O
  0.3	.	-2	-1	-19	-0.2
- CCN1C(=O)C(=O)c2cc(C)ccc21
  1.6	.	-3	5	3	-1.9

The listing continues.
The line under a structure holds: Bfl-1 A1 inh	MLL AF4-AF9 inh	Beta apoptosis	rRNA inh HTS	rRNA inh HTS OD600	rRNA inh HTS RFP
- CC1(NC(=O)c2ccccc2)CCN(CCc2cccs2)C1=O (configuration not stated)
  2.3	.	-2	5	0	-2.0
- C[C@@H]1COC(=O)[C@H](CC(=O)OC(C)(C)C)C/C=C\C[C@H](CC(=O)NCCO)C(=O)N1
  -0.6	.	-11	10	13	-1.6
- CCC(CO)Oc1cc(NCc2ccc(C(=O)O)cc2)c2ncn(C(C)C)c2c1 (configuration not stated)
  0.5	.	-1	5	7	-0.9
- COc1ccc(S(=O)(=O)N(C)C[C@H]2Oc3ccc(NC(=O)Nc4ccc5c(c4)OCO5)cc3C(=O)N([C@H](C)CO)C[C@@H]2C)cc1
  -0.2	.	-5	1	-1	6.7
- CC(=O)c1ccc([N+](=O)[O-])cc1
  0.1	.	-1	3	-3	-1.0
- C[C@H](CCCC/C=C/C(=O)O)O[C@@H]1O[C@@H](C)[C@H](O)C[C@H]1O
  -0.4	.	1	0	-3	6.8
- Cc1ccsc1CNCc1cc(Cl)ccc1O
  2.8	.	9	2	4	2.4
- CC(=O)c1cccc([N+](=O)[O-])c1
  0.1	.	-1	1	2	-2.1
- C[C@H](CO)N1C[C@H](C)[C@@H](CN(C)Cc2ccncc2)Oc2c(NC(=O)Cc3ccccc3)cccc2C1=O
  0.3	.	-2	-1	11	-1.7
- O=C(Cn1ccc(NC(=O)OCc2ccccc2)nc1=O)NCCCc1ccccc1
  0.4	.	4	12	4	-0.5
- C=C(C)c1ccccc1
  0.5	.	0	5	3	2.3
- COc1cccc(-c2ncc3ccccc3c2COC(=O)c2ccccc2C(=O)O)c1
  0.8	.	-3	-1	6	-0.1
- O=c1c2ccccc2ccc2ccc(P(=O)(O)O)cc12
  0.8	.	-3	-4	14	-3.5
- COc1ccccc1-c1sc2cc3c(cc2c1C#Cc1cncn1C)OCO3
  -0.7	.	8	-13	-21	-4.8
- CC(=O)Nc1nc2cc(N)ccc2s1
  -0.8	.	-6	12	4	0.4
- Nc1ncnc2c1ncn2[C@H]1CC[C@@H](CO)O1
  -0.5	.	2	-35	-29	-0.5
- CCc1ccc(N2C(=O)C(Cl)=C(Nc3ccc(C(=O)N4CCCC4)cc3)C2=O)cc1
  -1.8	.	-14	-7	5	2.4
- CN(C)C(=O)C[C@@H]1CC[C@H]2[C@@H](COc3ccc(NS(=O)(=O)c4cccc(F)c4)cc3C(=O)N2C)O1
  .	-1.3	.	3	-3	-2.8
- CC(=O)N1[C@H](CO)[C@H](c2ccc(-c3cncnc3)cc2)[C@@H]1CN(C)C(=O)C1CC1
  .	-3.7	.	2	4	-2.9
- O=C(C[C@H]1C=C[C@H](NC(=O)C2CCOCC2)[C@H](CO)O1)NCc1ccccc1Cl
  .	-4.8	.	2	10	-3.4

The listing continues.
The line under a structure holds: Bfl-1 A1 inh	MLL AF4-AF9 inh	Beta apoptosis	rRNA inh HTS	rRNA inh HTS OD600	rRNA inh HTS RFP
- C[C@@H]1CN([C@H](C)CO)C(=O)c2cc(/C=C/c3ccccc3)cnc2O[C@@H]1CN(C)Cc1ccncc1
  .	5.4	.	-1	3	1.4
- C[C@@H]1CN([C@@H](C)CO)C(=O)c2cc(NC(=O)CCC(F)(F)F)ccc2O[C@@H]1CN(C)C(=O)Nc1ccc(C(F)(F)F)cc1
  .	-0.5	.	-4	-3	-3.6
- CO[C@H]1CN(C)C(=O)c2cc(NS(=O)(=O)c3ccc(C)cc3)ccc2OC[C@@H](C)NC[C@@H]1C
  .	-0.8	.	0	1	-0.9
- Cc1cc(N2CCN(C(=O)c3ccoc3)CC2)n2nc(-c3ccccc3)cc2n1
  .	-2.9	.	-7	-3	-4.9
- CCC(=O)N(C)C[C@@H]1Oc2ncc(C#Cc3cccnc3)cc2C(=O)N([C@H](C)CO)C[C@@H]1C
  .	-3.8	.	3	8	0.4
- COc1cccc(-c2ccc3c(c2)[C@@H]2[C@@H](CCN2C(=O)c2ccccc2F)[C@@H](CO)N3C)c1
  .	2.5	.	-17	-44	32
- C[C@H](CO)N1C[C@H](C)[C@H](CN(C)C(=O)c2cccc(F)c2)Oc2ncc(-c3cncnc3)cc2C1=O
  .	-3.5	.	4	12	-2.6
- C[C@@H]1CN([C@@H](C)CO)C(=O)c2cccc(N(C)C)c2O[C@H]1CN(C)Cc1ccc(-c2ccccc2)cc1
  .	6.9	.	0	-1	-0.8

Single records, as listed above. Order of screens: Bfl-1 A1 inh	MLL AF4-AF9 inh	Beta apoptosis	rRNA inh HTS	rRNA inh HTS OD600	rRNA inh HTS RFP
Shown for CCC(=O)N(C)C[C@@H]1Oc2ncc(C#Cc3cccnc3)cc2C(=O)N([C@H](C)CO)C[C@@H]1C → .	-3.8	.	3	8	0.4
Shown for C[C@@H]1CN([C@@H](C)CO)C(=O)c2cc(NC(=O)CCC(F)(F)F)ccc2O[C@@H]1CN(C)C(=O)Nc1ccc(C(F)(F)F)cc1 → .	-0.5	.	-4	-3	-3.6
Shown for C[C@@H]1CN([C@@H](C)CO)C(=O)c2cccc(N(C)C)c2O[C@H]1CN(C)Cc1ccc(-c2ccccc2)cc1 → .	6.9	.	0	-1	-0.8

Of the compounds above, 10 contain an aryl methoxy group:
The line under a structure holds: Bfl-1 A1 inh	MLL AF4-AF9 inh	Beta apoptosis	rRNA inh HTS	rRNA inh HTS OD600	rRNA inh HTS RFP
- COc1ccc(S(=O)(=O)N(C)C[C@@H]2Oc3c(NS(=O)(=O)c4cn(C)cn4)cccc3C(=O)N([C@@H](C)CO)C[C@@H]2C)cc1
  -0.2	.	4	0	-3	2.7
- COc1cccc2sc(N)nc12
  -0.1	.	-5	1	0	-0.8
- CCOC(=O)[C@@H]1[C@H]2COc3cc(OC)ccc3[C@H]2N2C(=O)N(c3cccc(C)c3)C(=O)[C@]12C
  0.5	.	6	16	16	-1.2
- CCSc1ccc([C@@H]2[C@H]3C(=O)N(C)C(=O)[C@H]3[C@]3(C(=O)OC)CCCCN23)cc1OC
  -1.1	.	4	3	-16	48
- CCCCNc1c(-c2ccc(SC(C)CC)c(OC)c2)nc2ccc(Cl)cn12 (configuration not stated)
  -0.7	.	11	-8	-9	0.2
- COC(=O)[C@H](CC(C)C)N(Cc1ccccc1)S(=O)(=O)N(Cc1ccc(OC)cc1)[C@@H](CC(C)C)C(=O)OC
  1.8	.	116*	16	8	-6.6
- COc1ccc(S(=O)(=O)N(C)C[C@H]2Oc3ccc(NC(=O)Nc4ccc5c(c4)OCO5)cc3C(=O)N([C@H](C)CO)C[C@@H]2C)cc1
  -0.2	.	-5	1	-1	6.7
- COc1cccc(-c2ncc3ccccc3c2COC(=O)c2ccccc2C(=O)O)c1
  0.8	.	-3	-1	6	-0.1
- COc1ccccc1-c1sc2cc3c(cc2c1C#Cc1cncn1C)OCO3
  -0.7	.	8	-13	-21	-4.8
- COc1cccc(-c2ccc3c(c2)[C@@H]2[C@@H](CCN2C(=O)c2ccccc2F)[C@@H](CO)N3C)c1
  .	2.5	.	-17	-44	32

These rows are one share of the data. The share of hits here may be higher or lower than overall.
